# E coli growth: inhibitors of Escherichia coli growth; AID 1053175; OD600 absorbance (test concentration not listed); OD600, 23 h; stronger effect = lower value; 330,000 compounds, 0.21% hits;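 active means OD600 absorbance below the run mean of sample wells minus 3.6 SD, in any replicate, cut at about 0.56 in these data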;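 further: stock transfer was 300 nL into about 60 µL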
# LANA-H2B inh: blocks KSHV LANA binding to histone H2A/H2B; Q9QR71; cell-free LANA-H2A/H2B peptide, fluorescence polarization; inhibition, % (no concentration beside the values); 320,000 compounds, 0.6% hits; AID 2629; in the data active means inhibition mostly above about 10%, no sharp cut-off; inactive means mostly below about 6.7%;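 further: stock transfer was 7.5 nL into about 10 µL; 0% = median of vehicle wells and 100% = median of positive control wells; one replicate is shown; the record names a cut of 25% in any replicate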
# FGF22 binding: FGF22 (human) thermal shift binding; 340,000 compounds, 1.5% hits; calls only at 9.99 µM; recombinant FGF22 thermal shift, SYPRO orange fluorescence; percent of sucrose octasulfate shift, DMSO zero; AID 651658; Q9HCT0;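 active means melting point raised past a set limit in the mean and every replicate; three in four hits are not shown here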
# Beta2AR agonist: human beta-2 adrenergic receptor agonism by FAP | P07550 | Am2.2-beta2AR cells, FAP receptor internalization, flow cytometry; reference of the scale not given here | response, % (no concentration beside the values) | 340,000 compounds, 0.43% hits | AID 504454;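 active means response above a set limit, near 3 SD of response in nonfluorescent compounds, cut at about 42% in these data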;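 further: stock transfer was 100 nL into about 11 µL; a reference agonist was the positive control; negative values mostly stem from fluorescent compounds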
# HNF4A DNA FP: change in binding of human HNF4 alpha to DNA. HNF4a-FITC DNA binding, fluorescence polarization, 1 h. 360,000 compounds, 0.3% hits. activity change, % at 10 µM; in the data active means activity change above about 30%, passing the limit was not always enough;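 further: controls were the assay level and a saturating level of protein; the project sought stronger binding though the title names inhibitors; some compounds called inactive have numbers as strong as hits; positive values seem to mean higher polarization but the record does not say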
# Target sequence (P41235 whole entry, looked up): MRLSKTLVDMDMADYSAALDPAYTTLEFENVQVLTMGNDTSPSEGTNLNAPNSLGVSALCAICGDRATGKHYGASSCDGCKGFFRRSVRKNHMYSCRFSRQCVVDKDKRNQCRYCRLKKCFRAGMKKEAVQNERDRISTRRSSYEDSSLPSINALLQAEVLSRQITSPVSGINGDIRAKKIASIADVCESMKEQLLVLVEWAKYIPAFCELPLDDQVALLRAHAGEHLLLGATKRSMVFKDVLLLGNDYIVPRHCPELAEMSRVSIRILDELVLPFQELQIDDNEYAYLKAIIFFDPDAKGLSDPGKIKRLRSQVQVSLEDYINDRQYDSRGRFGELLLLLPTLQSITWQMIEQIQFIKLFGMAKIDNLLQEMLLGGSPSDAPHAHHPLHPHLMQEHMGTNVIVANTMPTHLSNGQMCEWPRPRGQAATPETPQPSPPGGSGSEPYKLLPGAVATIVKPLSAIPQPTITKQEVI
# ALR inh: human ALR oxidase inhibition via reduced H2O2. inhibition, % (no concentration beside the values). 290,000 compounds, 3.8% hits. purified ALR, DTT oxidation, H2O2 HRP-luminol luminescence. P55789;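 active means mean and each replicate at 75% or more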;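 further: stock transfer was 7.5 nL into about 7.5 µL; 0% = neutral wells and 100% = wells with inactivated enzyme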
# Target sequence (P55789 whole entry, looked up): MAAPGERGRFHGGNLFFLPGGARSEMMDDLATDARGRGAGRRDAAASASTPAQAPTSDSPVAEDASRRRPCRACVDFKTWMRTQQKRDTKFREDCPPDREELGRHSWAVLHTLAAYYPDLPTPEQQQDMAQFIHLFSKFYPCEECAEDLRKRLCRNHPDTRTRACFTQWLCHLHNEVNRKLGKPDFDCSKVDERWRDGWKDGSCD
# UCH37 inh: blocks the human deubiquitinase UCH37; 330,000 compounds, 0.33% hits; purified proteasome/UCH37, Ub-AMC cleavage fluorescence; inhibition, % (concentration not given with the values); Q9Y5K5;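 active means mean of two replicates above 20%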;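 further: 0% = compound-free wells with enzyme and 100% = wells lacking proteasome; stock transfer was 100 nL into about 20 µL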
# Target sequence (Q9Y5K5 whole entry, looked up): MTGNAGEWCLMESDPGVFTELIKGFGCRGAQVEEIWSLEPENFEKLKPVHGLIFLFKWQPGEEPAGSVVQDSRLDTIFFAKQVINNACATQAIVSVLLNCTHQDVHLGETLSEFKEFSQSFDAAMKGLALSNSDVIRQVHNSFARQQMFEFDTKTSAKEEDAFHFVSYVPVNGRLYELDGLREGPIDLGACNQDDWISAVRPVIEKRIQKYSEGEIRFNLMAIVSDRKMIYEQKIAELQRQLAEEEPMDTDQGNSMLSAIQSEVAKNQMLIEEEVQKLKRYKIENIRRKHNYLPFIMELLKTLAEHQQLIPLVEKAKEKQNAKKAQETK
#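 System: Proteasome-associated human UCH37 deubiquitinase; Input: 0.15 nM proteasome in added enzyme buffer; Also added: Ub-AMC substrate from 1 µM stock; Incubation: 30 min compound-proteasome preincubation then 25 min substrate reaction, room temperature; Detection: fluorescence, ex 355 nm, em 460 nm; Read-out: % inhibition of Ub-AMC cleavage fluorescence; Benchmarks: no-proteasome and no-compound wells.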
# Active calls of the source: *; i = inactive; . = no result given. The list is partial; rates above refer to the full screens.
canonical_smiles	UCH37 inh	HNF4A DNA FP	LANA-H2B inh	Beta2AR agonist	ALR inh	FGF22 binding	E coli growth
O=C(C1CC(=O)N(C2CCCCC2)C1)N1CCN(c2ccccc2)CC1 (stereo unspecified)	2.7	1.0	0.3	1	68	i	0.7
CCOC(=O)NC(NS(=O)(=O)c1ccccc1)(C(=O)OCC)C(F)(F)F (stereo unspecified)	-4.7	-3.1	1.6	4	5	.	0.64
C=C(C)C1CC=C(C)/C(=N/NC(=O)c2cccs2)C1 (stereo unspecified)	.	0.3	1.0	-30	-15	.	.
CCCc1cc(=O)c2c(O)ccc(OC)c2o1	5.6	4.0	0.4	8	2	i	0.66
Cc1nc(SCN2C(=O)c3ccccc3C2=O)n[nH]1	1.1	5.3	1.7	-8	-5	.	0.71
COc1ccccc1N(CC(=O)NCc1ccccn1)S(C)(=O)=O	-0.1	0.9	-4.1	0	-8	i	0.71
COCCNC(=O)/C(C#N)=C/c1ccc(O)cc1	7.8	-1.3	1.3	9	87*	i	0.68
COc1ccc(NC(=O)N2CCN(c3cccc(C(F)(F)F)c3)CC2)cc1	4.1	2.4	0.5	5	-25	.	0.7
COc1ccc(C(=O)Nc2nnc(-c3ccccc3)o2)cc1OC	3.2	-4.6	-3.0	1	-5	.	0.7
CCOc1cccc(C(=O)Nc2ccc3oc(-c4cccnc4)nc3c2)c1	-44	1.4	1.9	7	0	i	0.59
N#Cc1ccc(C(=O)Nc2cccc(NC(=O)c3ccco3)c2)c(F)c1	-1.7	1.9	0.7	0	-5	i	0.73
CCOc1ccc2oc(-c3ccccc3)c(C(N)=O)c2c1	-94	-2.6	-0.3	3	.	i	0.7
CCS(=O)(=O)c1nc2ccccc2n1CC(=O)N1CCCCC1	2.0	0.3	-1.3	-2	-1	.	0.73
O=C(CNS(=O)(=O)c1ccc(Br)cc1Cl)OCC(=O)c1ccc[nH]1	-0.1	7.5	-1.7	-3	-5	i	0.68
Clc1cccc(CN2CCSCC2)c1Cl	5.1	2.7	-0.2	-3	6	i	0.57
Cc1ccc(CN2C(=O)CCC2C(=O)NCCCN2CCC(C)CC2)cc1 (stereo unspecified)	-3.0	0.2	.	3	.	.	0.75
COc1c(Cl)cc(Cl)cc1/C=N/NC(=O)c1nnn(-c2nonc2N)c1CN1CCC(C)CC1	.	-0.7	2.2	3	-2	i	.
COc1ccccc1CN1CC(C(=O)N2CCCCCCC2)CCC1=O (stereo unspecified)	4.5	-1.5	1.4	-3	-16	i	0.7
c1ccc(COC2CCCN(Cc3nc(-c4cccs4)no3)C2)nc1 (stereo unspecified)	2.8	4.3	2.5	-27	2	i	0.72
O=C(NC1CCCC1)c1cnc2n(c1=O)CCS2	1.3	1.9	-1.6	-14	.	.	0.64
Cc1cccc(C)c1NC(=O)C1(C)c2cccc[n+]2CC(=O)N1Cc1cccs1 (stereo unspecified)	-0.5	8.3	-3.3	0	-6	i	0.74
O=C(CCc1nnc2ccc(NCc3ccc(Cl)cc3)nn12)NC1CCCCC1	3.9	2.0	-0.1	-8	2	i	0.68
O=C(Oc1cccnc1)c1cccc(Cl)c1	1.9	1.5	19	3	-3	.	0.71
Cn1c(=O)c2c(nc(CN3CCN(Cc4ccccc4)CC3)n2CCN2CCOCC2)n(C)c1=O	2.8	-4.0	4.4	-6	-4	.	0.65
CC(O)CN1CC(O)=C(c2nc3ccccc3s2)C1=N (stereo unspecified)	-3.4	-2.6	-4.5	2	.	i	0.69
O=C(/C=C/NCc1cccnc1)c1ccc(Br)cc1	9.5	6.1	-7.3	-1	0	i	0.69
Cc1nn(Cc2ccc(Cl)cc2)c(C)c1NC(=O)/C=C/c1cnn(C)c1	-0.6	2.2	-1.9	-5	4	.	0.68
CCCCCCOc1ccc(/C=N/NC(=O)C2CC2)cc1	.	-1.2	4.6	-5	-12	i	.
COC(=O)[C@@]1(Cc2ccccc2)[C@@H]2C(=CC(=O)[C@H]2CC(=O)C(=O)N(C)C)CN1C(=O)c1ccccc1	1.4	7.5	5.1	7	.	.	.
CC(=O)Nc1ccc(S(=O)(=O)NC2(C(F)(F)F)C(=O)Nc3c2c(=O)[nH]c(=O)n3Cc2cccnc2)cc1 (stereo unspecified)	0.9	-0.1	3.0	22	-15	i	0.74
Cc1cc(OCCn2nc(C(=O)O)c3ccccc3c2=O)ccc1C(C)C	4.4	2.4	.	15	.	i	0.68
O=C1CSC(=S)N1N=Cc1ccc2c(c1)OCO2	.	0.4	.	-4	.	i	.
COc1cccc(-c2ncc3ccccc3c2COC(=O)CCC(=O)O)c1	1.3	2.4	2.1	3	-6	i	0.67
S=C(NCC1COc2ccccc2O1)Nc1ccc(Br)cc1 (stereo unspecified)	1.5	-1.1	-3.7	-4	-15	i	0.67
CCc1cc(CNC(=O)CCc2nnc(Cc3cccc(C)c3)o2)on1	0.1	4.7	10	-1	5	i	0.72
COC(=O)c1cc(O)cc(OC)c1Oc1cc(C)cc(O)c1C(=O)O	6.1	-23	0.8	7	.	i	0.76
CCOC(=O)N1CCN(CC(O)COc2ccc(C(C)C)c(C)c2)CC1 (stereo unspecified)	0.8	3.7	0.3	-11	3	i	0.64
CCCN(CC(=O)Nc1ccccc1OC)C(=O)Cc1ccc2c(c1)CCC2	2.3	0.4	-3.0	5	24	.	0.69
Cc1cc2cc(CCNC(=O)C3c4ccccc4Oc4ccccc43)c(=O)[nH]c2cc1C	2.0	.	8.2	.	.	.	0.73
O=C(Cn1cncn1)N1CCN(c2ccc(F)cc2)CC1	1.1	-2.5	-3.8	3	65	i	0.67

# A draw from above in order of molar mass, descending:
canonical_smiles	UCH37 inh	HNF4A DNA FP	LANA-H2B inh	Beta2AR agonist	ALR inh	FGF22 binding	E coli growth
Cc1cc2cc(CCNC(=O)C3c4ccccc4Oc4ccccc43)c(=O)[nH]c2cc1C	2.0	.	8.2	.	.	.	0.73
CCCN(CC(=O)Nc1ccccc1OC)C(=O)Cc1ccc2c(c1)CCC2	2.3	0.4	-3.0	5	24	.	0.69
S=C(NCC1COc2ccccc2O1)Nc1ccc(Br)cc1 (stereo unspecified)	1.5	-1.1	-3.7	-4	-15	i	0.67
CCOC(=O)N1CCN(CC(O)COc2ccc(C(C)C)c(C)c2)CC1 (stereo unspecified)	0.8	3.7	0.3	-11	3	i	0.64

# Continuation:
canonical_smiles	UCH37 inh	HNF4A DNA FP	LANA-H2B inh	Beta2AR agonist	ALR inh	FGF22 binding	E coli growth
Cc1cc(N)n2ncc(-c3ccc(Cl)cc3)c2n1	-78	4.3	-2.6	-7	.	.	0.7
CC1CC(C)CN(CCOc2ccc(Br)cc2)C1 (stereo unspecified)	-0.5	-0.4	-5.4	-4	.	i	0.68
COc1ccc(CN(Cc2cccn2C)S(=O)(=O)c2cccc(C(F)(F)F)c2)cc1	-0.5	-0.9	-6.5	-9	.	i	0.67
CCOC(=O)c1c(NC(=O)NC(C)(C)C)sc2c1CCN(C)C2	5.5	3.4	-3.7	-2	-5	i	0.69
COCCNC(=O)CCCCCNS(=O)(=O)c1ccc(C)cc1	0.5	-1.8	-3.9	2	-5	.	0.72
COCCN(C(=O)CSc1nc2ccc(OC)cc2[nH]1)c1c(N)n(Cc2ccccc2)c(=O)[nH]c1=O	2.4	-4.3	.	4	.	i	0.69
O=C(Nc1ncc([N+](=O)[O-])s1)c1ccco1	12	0.2	-0.4	3	7	i	0.67
CCCCc1nnc(NC(=O)c2ccc(-n3cncn3)c([N+](=O)[O-])c2)s1	6.5	-2.3	0.3	-7	-7	i	0.63

# No new results follow: two of the compounds above.
canonical_smiles	UCH37 inh	HNF4A DNA FP	LANA-H2B inh	Beta2AR agonist	ALR inh	FGF22 binding	E coli growth
CC(=O)Nc1ccc(S(=O)(=O)NC2(C(F)(F)F)C(=O)Nc3c2c(=O)[nH]c(=O)n3Cc2cccnc2)cc1 (stereo unspecified)	0.9	-0.1	3.0	22	-15	i	0.74
Cc1cc(OCCn2nc(C(=O)O)c3ccccc3c2=O)ccc1C(C)C	4.4	2.4	.	15	.	i	0.68

# Next part
canonical_smiles	UCH37 inh	HNF4A DNA FP	LANA-H2B inh	Beta2AR agonist	ALR inh	FGF22 binding	E coli growth
CC(=O)c1ccc(NC(=O)C2CCCN2S(=O)(=O)c2ccc(F)cc2)cc1 (stereo unspecified)	1.8	5.9	5.5	4	-6	.	0.74
COc1ccc(NC(=O)CN2C(=O)COc3ccc(S(=O)(=O)N4CCOCC4)cc32)cc1	1.3	-4.4	-0.5	-2	-1	i	0.69
CCOC(=O)C1=C(c2ccccc2)NC(=S)NC1C (stereo unspecified)	2.1	3.0	-11	-1	1	.	0.67
O=C(CCN1CCOCC1)NNC(=S)NC(=O)c1ccc(Br)cc1	2.0	0.1	0.0	-2	99*	i	0.47*
CC(C)NC(=O)C1CCN(c2ccc(S(=O)(=O)N3CCOCC3)cc2Cl)CC1	1.9	6.1	-3.3	-7	-1	i	0.7
COc1ccc(-c2csc(NC(CO)c3nc4ccccc4n3Cc3ccc(C)cc3)n2)cc1 (stereo unspecified)	-0.7	-2.2	3.8	2	-8	i	0.67
COc1ccc(OCc2nnc(SCC(=O)c3ccccc3)o2)cc1	6.2	-1.9	0.3	-5	-9	i	0.62
Cc1cc(C)c(C)c(S(=O)(=O)NCc2ccc(C(=O)N3CCN(C)CC3)cc2)c1C	.	-2.0	6.7	2	-6	i	.
CC(=O)Oc1ccc2oc(C)c(C(=O)N3CCOCC3)c2c1	0.3	-5.4	10	0	3	.	0.73
O=C(C1CCCO1)N1CCN(C(=S)Nc2cccc(F)c2)CC1 (stereo unspecified)	-0.4	-0.7	-0.7	5	2	i	0.67
Cc1cccc(C(=O)NC(=S)NNC(=O)c2cccs2)c1	11	-0.1	-8.7	1	99*	i	0.62
CC1=Nc2cc(C(=O)O)ccc2Sc2c(C)ccc(C)c21	3.0	1.7	1.6	8	1	i	0.66
O=C(Nc1ccccc1)ON=C1CCCC1	1.5	3.0	1.6	-7	-2	i	0.67
CCOCC(=O)N1CCN(c2cccc(Cl)c2)CC1	3.0	0.6	0.8	12	11	.	0.69
COc1cccc(CC(=O)OCC(=O)NCc2ccc3c(c2)OCO3)c1	0.3	-3.7	1.8	4	-1	i	0.7
CCCCC(CC)C(=O)Nc1ccccc1C#N (stereo unspecified)	-1.5	3.1	4.5	-3	6	.	0.72
CCN(C(=O)CN1C(=O)c2ccc([N+](=O)[O-])cc2C1=O)C1CCCCC1	1.2	2.7	-1.8	3	4	i	0.67
CC(=O)c1cccc(NC(=O)C(C)OC(=O)CCC2CCCCC2)c1 (stereo unspecified)	4.4	1.2	3.2	-3	-5	i	0.63
O=C(CCCOc1ccccc1)Nc1ncccn1	2.3	1.9	0.3	-1	37	.	0.68
Cc1ccc2[nH]c(=O)c(CN(Cc3cccs3)S(=O)(=O)c3ccc4c(c3)OCCO4)cc2c1	1.9	-4.9	-2.0	-8	-6	i	0.71
CCc1ccc(OCC(=O)NNC(=O)c2cc(S(=O)(=O)N3CCOCC3)ccc2N2CCCC2)cc1	4.1	-1.5	-2.4	3	.	i	0.72
O=C(COc1ccc([N+](=O)[O-])cc1)Nc1ccc(C(=O)NCc2cccnc2)cc1	4.4	2.5	-2.0	-2	4	.	0.67
COc1ccc(C(=O)NC2CCCc3ccccc32)cc1S(=O)(=O)N1CCOCC1 (stereo unspecified)	1.8	1.6	0.7	1	-45	i	0.7
CCN(C[C@H]1N[C@@](Cc2ccccc2)(C(=O)OC)[C@H]2C(=O)N(C)C(=O)[C@@H]12)C(=O)Nc1ccc(Cl)cc1	3.4	1.5	2.4	-2	.	i	0.68
NNc1nc(-c2ccccc2)nc2sc3c(c12)CCCC3	-1.0	-0.3	-2.2	-7	-12	.	0.68
CCOC(=O)C1=C(O)/C(=C\c2cc(C)n(-c3ccccc3F)c2C)N=C1C	-2.2	0.5	4.0	16	-6	.	0.71
NC1=NC(=O)NC1(c1ccccc1)c1ccccc1	.	1.6	.	-2	.	i	.
